Source: PubChem (National Center for Advancing Translational Sciences (NCATS))
HttQ103 aggreg – mutant huntingtin aggregation inhibition. PC12 HttQ103-GFP aggregates, Acumen cytometry, 40 h. Potency, µM (highest dose often 46.1 µM), without a hit: at the highest dose activity change, negative = inhibition, usual class: inhibitors. 220,000 compounds, 1.1% hits. AID 1688; also: % is scaled to controls: 0 for no effect and ±100 for the full control effect; nearly all actives have a fitted effect of over 60% in size
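Multiplexed with ATP-based cell death, this channel scores GFP aggregates in PC12 cells expressing inducible HTTex1-Q103-GFP. Induction used 100 nM tebufenozide; compounds were tested in concentration series.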
Epigenetic derep – derepresses silenced GFP reporter in murine cells; murine LDR cells, GFP reporter derepression, 30 h; Potency, µM (doses to about 53.9 µM), for inactives: top-dose GFP activation, most hits filed as activators; 280,000 compounds, 0.2% hits; also: % of control where 0% means no effect; nearly all actives have a fitted effect of over 60% in size
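GFP-positive cell count by laser-scanning cytometry (objects 20–120 um) after 30 h, 37 C compound exposure of murine LDR cells; reporter is CMV-GFP integrated at a silenced locus, inducible by HDAC or DNMT inhibitors.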
LMNA splice mod – LMNA splicing modulation; Potency, µM (highest dose often 46.1 µM), for inactives: at the top dose ratio change, negative = inhibition, most hits filed as inhibitors; HeLa LMNA splicing GFP/RFP minigene ratio, 48 h; 200,000 compounds, 0.01% hits; active = well fitted inhibition curve with a large enough effect in the signal ratio, with a control signal flat, not every such curve was filed as active; inconclusive = small, poorly fitted or top-dose-only effect, or effect the other way, or a change in a side signal; the % refers to the signal ratio; also: % is scaled to controls: 0 for no effect and ±100 for the full control effect
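Read-out is the ratio of GFP to DsRed2 object intensity, acquired by 488 nm laser-scanning cytometry on HeLa lamin A-EGFP minigene reporter cells. Compound incubation 48 hrs at 37 °C in Opti-MEM with 2% FBS; DMSO 0.5% final.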
IMPase Li inh – membrane-permeable IMPase blocker, potentiated with lithium | 210,000 compounds, 0.35% hits | Potency, µM (highest dose often 59.4 µM), inactives show at the top dose activity, negative = IMPase inhibition, hits mostly inhibitors | CHO-M1 cells, IP1 TR-FRET (IP-One), carbachol + lithium;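 also: IP1 builds up when IMPase is blocked and the TR-FRET signal falls; plate controls were basal vehicle for no effect and high inhibitor control for full effect; nearly all actives have a fitted effect of over 50% in size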
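Test compounds were applied to CHO-M1 cells previously cultured for 16–30 h at 2000 per well. A small lithium amount accompanied them; after 30 min at 37C, IP1 was quantified by TR-FRET.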
* hit, by the source's call; ? = inconclusive; nt = no result given; & = joins results of further samples; [ ] = dose if it differs, or a comment. Unless noted, calls follow the shape of the dose curve; as a rule, active = well fitted curve in the direction sought with a large enough effect; inconclusive = small, poorly fitted or top-dose-only effect, or another doubt; inactive = no such curve, though single readings can be large; an effect the other way counts as inactive or inconclusive. Potency is read from the fitted curve at half-maximal effect. Some of the compounds tested. The share of hits here may be higher or lower than overall.

[1] C[C@@]12CCC3c4ccc(O)cc4CCC3C1CCC2O (stereo partly specified)
[2] O[C@@](CCN1CCCC1)(c1ccccc1)C1CCCCC1
[3] CCN(CC)CCC[C@H](C)Nc1ccnc2cc(Cl)ccc12
[4] O=S(=O)(Nc1ccc(-c2nc3cccnc3s2)cc1)c1cccs1
[5] CC(C)(C)N(NC(=O)Nc1ccc(Cl)c(Cl)c1)C(=O)c1ccccc1
[6] CC(N=C(NC#N)Nc1ccncc1)C(C)(C)C (stereo unspecified)
[7] COc1ccc(C2Sc3ccccc3N(CCN(C)C)C(=O)C2OC(C)=O)cc1 (stereo unspecified)
[8] CCCCC(C)(O)C/C=C/[C@H]1[C@H](O)CC(=O)[C@@H]1CCCCCCC(=O)OC (stereo partly specified)

assay / compound	1	2	3	4	5	6	7	8
HttQ103 aggreg	nt	20%[20.6 µM]	-10%	-22%	?	-14%&-32%	nt	-12%&27%
Epigenetic derep	9.3%	-0.3%[16.9 µM]	0.3%[16.9 µM]	0.0%	-1.1%	1.2%&0.0%&0.0%&-0.5%&2.2%	0.0%	-1.8%&0.1%
LMNA splice mod	nt	?	-14%&-16%	-2%	?	?	nt	?
IMPase Li inh	15%	26%	5%	-10%[38.3 µM]	30%[activator][38.3 µM]	5%&6%&-8%&8%&-3%	21%	-4%&6%

Taken from above:
no. 6 – IMPase Li inh = 5%&6%&-8%&8%&-3%
no. 8 – Epigenetic derep = -1.8%&0.1%

In the list so far, these contain sulfur:
[4] O=S(=O)(Nc1ccc(-c2nc3cccnc3s2)cc1)c1cccs1
[7] COc1ccc(C2Sc3ccccc3N(CCN(C)C)C(=O)C2OC(C)=O)cc1 (stereo unspecified)

assay / compound	4	7
HttQ103 aggreg	-22%	nt
Epigenetic derep	0.0%	0.0%
LMNA splice mod	-2%	nt
IMPase Li inh	-10%[38.3 µM]	21%

Compound profiles (already shown). Order of values: HttQ103 aggreg	Epigenetic derep	LMNA splice mod	IMPase Li inh
O=S(=O)(Nc1ccc(-c2nc3cccnc3s2)cc1)c1cccs1 as listed: -22%	0.0%	-2%	-10%[38.3 µM]
CCN(CC)CCC[C@H](C)Nc1ccnc2cc(Cl)ccc12 as listed: -10%	0.3%[16.9 µM]	-14%&-16%	5%
COc1ccc(C2Sc3ccccc3N(CCN(C)C)C(=O)C2OC(C)=O)cc1 (stereo unspecified) as listed: nt	0.0%	nt	21%
